Screening results deposited in PubChem BioAssay by ICCB-Longwood Screening Facility, Harvard Medical School.
AID504770 = growth inhibitors of E. coli YBA685 in a screen for V. cholerae RctB (chromosome II replication) inhibitors; E. coli YBA685 rctB-dependent plasmid, OD600 growth, 3 h; hits give low values; z-score (no concentration beside the values); actives 0.27% (n = 130,000); AID 504770;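 active = z-score under -2 on both plates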;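 note: wells of about 30 µL received 100 nL stock; score is relative to mean and SD of the test wells; the first replicate is given; strong numbers were not always called active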
CapD inh = CapD enzyme inhibition. purified CapD enzyme, fluorescence intensity read-out; hits give low values; some hits fall short of the stated cut. z-score (test concentration not listed). actives 0.23% (n = 140,000);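 active = z-score under -4 in either of two replicates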;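 note: stock transfer was 100 nL into about 40 µL; score is relative to mean and spread of the plate; one replicate is shown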
Active calls of the source: *; nt = no result given; & = joins results of further samples. Outcome played no part in choosing rows; overall some 0.41% were active at least once.

item	Compound	AID504770	CapD inh
1	COC(=O)c1cc2ccsc2n1CC(=O)N(C)C1CCCCC1	1.1	-0.045
2	CS(=O)(=N/C=C(\C#N)S(=O)(=O)c1ccc(C(F)(F)F)cn1)c1ccc(Cl)cc1 (stereo not given)	-0.6	0.58
3	O=C(NCc1cccc2ccccc12)c1ccc2c3c(cccc13)CC2	1.4	16
4	COC(COC(=O)NC1CCN(Cc2c(F)cccc2Cl)C1)c1ccccc1 (stereo not given)	nt	0.22
5	Cc1cc(C(=O)NCC2CCCO2)on1 (stereo not given)	0	0.58
6	CC(=O)n1ccc(-c2ccc(C#Cc3ccccc3)cc2)n1	-0.05	3
7	CC(=O)c1c(C)[nH]n(-c2nc3ccccc3s2)c1=O	-0.8	0.17
8	O=C(O)c1ccccc1C(=O)n1cnc2ccccc21	0.55	0.025
9	c1csc(CNc2ccc3c(c2)oc2ccccc23)c1	-0.95	90
10	CCOC(=O)c1c(NC(=O)c2sc3ccccc3c2Cl)sc2c1CCC(C(C)(C)C)C2 (stereo not given)	nt	-0.15
11	CCCCC1(C)N2CC3(C)CN1CC(C)(C2)C3=O (stereo not given)	-1.3	0.13
12	COc1cccc2cc(-c3cn4ccccc4n3)c(=O)oc12	0.7	nt
13	CC1CCCCN1C(=O)c1cc2nc(-c3ccc(Cl)cc3)cc(C(F)(F)F)n2n1 (stereo not given)	-0.95	1.2
14	COc1ccc(N2Cc3ccccc3C2=O)cc1	-0.45	nt
15	CCOC(=O)Cn1c(=O)c(=O)n(C(C)C)c2ccc(C(F)(F)F)cc21	nt	-0.32
16	O=C(Cc1c(F)cccc1Cl)n1nnc2ccccc21	-0.9	-0.37
17	CON(C)C(=O)c1ccc2cc[nH]c2c1	nt	0.8
18	CCOc1ccc2[nH]c(=S)[nH]c2c1	-0.5	nt
19	Cc1cccc2sc(NC(=O)c3ccccc3)nc12	0.05	1.8
20	O=S(=O)(NN=Cc1cn(-c2ccccc2)nc1-c1ccco1)c1ccc(Cl)cc1	0.9	-0.005
21	CN(C)C(=O)C1CC(=O)N(c2ccc(Cl)cc2)C1 (stereo not given)	-1.4	nt
22	CCN1C(=O)/C(=C\C=C2/Sc3ccc(Cl)cc3N2C)SC1=S	0.6	5.1
23	COc1ccc(CNC(=O)C2CC(=O)N=C(N)S2)cc1 (stereo not given)	3.5	-0.47
24	O=C(O)c1n[nH]c2c1CCCC2	-0.55	nt
25	Cc1cccc(C)c1OC1(c2ccccc2)OC(=O)c2ccccc21 (stereo not given)	nt	-1.1
26	Cc1c(C(=O)N2CCC(C#N)CC2)sc2ncnc(N3CCN(c4ccccc4F)CC3)c12	nt	-0.18
27	Cc1csc(=O)n1CCC(=O)OCC(=O)c1ccc(S(=O)(=O)N2CCCCC2)cc1	-0.05	nt
28	C=CCOc1ccc(CN(C)CC(O)COc2ccccc2C(C)C)cc1 (stereo not given)	1.8	nt
29	CSc1sc(C(=O)/C=C/N(C)C)c(-c2cccs2)c1C#N	-0.65	-1.3
30	Cc1ccc(OCc2ccccc2C(=O)Nc2nccs2)cc1	0.25	0.41
31	C(=C\c1ccccc1)/C=N/Nc1nc2ccccc2[nH]1	0.75	nt
32	O=C(NCCCN1CCOCC1)c1ccc2c(=O)n(Cc3ccc4c(c3)OCO4)c(=S)[nH]c2c1	nt	-0.23
33	CC1(C)CC2CC(C)(CN2C(=O)COC(=O)c2ccc3c(c2)OCCO3)C1 (stereo not given)	-0.45	nt
34	CN(c1ccc(Br)cc1)S(=O)(=O)c1ccc2[nH]cc(C(=O)NC3CCCC3)c(=O)c2c1	nt	1.6
35	O=C(N/N=C/c1c(Cl)cccc1Cl)c1ccccc1Oc1ccccc1	nt	0.14
36	O=C(Nc1ccccc1N1CCCCC1)c1sc2ccccc2c1Cl	1.6	-0.13
37	O=C(NCSc1nc2ccccc2s1)c1ccco1	-0.85	-1.2
38	COc1cc(/C=N/n2c(C)nnc2-n2nc(C)cc2C)cc(I)c1O	nt	-0.58
39	Cc1cc(C(=O)NN)c2cc(Br)ccc2n1	1.3	-2.1
40	Cc1ccc(C(=O)NCC(=O)O)s1	0.7	-0.33
41	CCn1c(SCC(N)=O)nc2ccccc21	-2.3	nt
42	O=C1C(Cc2ccccc2)N=C(N2CCN(c3ccc(Cl)cc3)CC2)N1c1ccccc1 (stereo not given)	-0.4	0.52
43	Cc1cc2c(cc1S(=O)(=O)NCCN1CCN(c3ccccc3F)CC1)OCC(=O)N2	-0.75	0.25
44	CCC1(CC)Cc2ccccc2C(=O)N1	-0.55	0.72
45	C=C1CC2CC(=O)CC(C1)C2	nt	-0.39
46	COC(=O)C1C(=O)NC(SCC(=O)Nc2cccc(Cl)c2)=C(C#N)C1c1ccccc1Cl (stereo not given)	nt	-0.29
47	Cc1cc(NC(=O)CSC2=NCCS2)no1	-1.8	-0.16
48	O=C(Nc1cc2c3c(c1)C1CCCC1CN3CC1CCCC21)c1ccc(Br)cc1 (stereo not given)	nt	0.24
49	COc1ccc(CCN(Cc2nc3ccccc3c(=O)[nH]2)C(=O)C(C)C)cc1	0	nt
50	CCC(CC)C(=O)Nc1cccc(I)c1	-1	-0.12
51	O=C(On1c(C2CCCCC2)nc2ccccc2c1=O)c1ccccc1F	nt	-0.2
52	COC(=O)c1ccccc1NC(=O)CNCCc1ccc(OC)c(OC)c1	-0.8	nt
53	Cc1ccc(S(=O)(=O)NC(=O)NC(C)C2CC3CCC2C3)cc1 (stereo not given)	0	nt
54	CCOC(=O)C1=C(O)/C(=C/c2ccc(O)c(OC)c2)SC1=Nc1ccc([N+](=O)[O-])cc1	nt	-0.38
55	Cc1[nH]c2ccccc2c1CCNC(=O)c1ccccc1NC(=O)c1cccs1	nt	0.79
56	CCc1ccc(C2C(C(=O)OC)=CNC=C2C(=O)OC)cc1	-0.05	42
57	Cc1cc(C2=NNC(=NCC3CCCO3)SC2)c(C)n1-c1c(C)n(C)n(-c2ccccc2)c1=O (stereo not given)	1.2	nt
58	CCOc1ccc(-c2nc3ccccc3s2)cc1	0.55	7.5
59	CCCCN(C(=S)Nc1cccc(C)c1)c1c(N)n(CCC)c(=O)[nH]c1=O	1.9	nt
60	O=C(O)c1ccccc1-n1cccc1C(=O)O	nt	0.41

Going on with the list.
item	Compound	AID504770	CapD inh
61	Cc1[nH]n(-c2ccccc2)c(=O)c1C(c1ccc(OCc2ccccc2Cl)cc1)c1c(C)[nH]n(-c2ccccc2)c1=O	nt	-0.57
62	OCCNNC(=S)NC1CC2C=CC1C2 (stereo not given)	nt	-0.62
63	O=C(C/C=N\OCc1c(Cl)cccc1Cl)Oc1ccc(Cl)cc1	nt	-0.63
64	CCCCC1(O)C(C)C(c2ccccc2)N(C)C(c2ccccc2)C1C (stereo not given)	nt	-1.3
65	O=C(CSc1nnc(CNC(=O)c2ccco2)n1-c1ccc([N+](=O)[O-])cc1)Nc1cc(C(F)(F)F)ccc1Cl	nt	-0.54
66	CC(C)C(C(=O)O)N1C(=O)CSC1=S (stereo not given)	0.55	0.27
67	COc1ccccc1Oc1c(F)c(F)nc(N2CCCCC2)c1F	1.9	0.05
68	CC(=O)OC1CCC([N+](C)(C)C)C(OC(C)=O)C1[N+](C)(C)C (stereo not given)	-1.4	-0.01
69	COc1ccc(C(=O)CSc2nc3c([nH]2)c(=O)n(C)c(=O)n3C)cc1	0.25	-0.18
70	O=[N+]([O-])c1ccc(C2OCC3(CO)COC(c4ccc([N+](=O)[O-])cc4)N23)cc1 (stereo not given)	nt	-0.83
71	CCOC(=O)N1CCC(NC(=O)CSCc2cnn(-c3ccccc3)c2-n2cccc2)CC1	0.3	0.34
72	O=C1/C(=C/c2cccnc2)CC/C1=C\c1cccnc1	-0.05	4
73	c1ccc(CNC2=NCCCCC2)cc1	-0.35&0.7	3.3&-0.36
74	FC(F)(F)C(F)(F)C(F)(F)c1nnc2ccc(N3CCOCC3)nn12	-0.3	nt
75	Cc1nnc(NNC(=O)c2ccc(C#N)cc2)[nH]c1=O	-0.35	nt
76	O=C1c2ccncc2C(=O)N1Cc1ccccc1	-1.1	-0.46
77	O=S(=O)(Nc1cc(Cl)cc(Cl)c1)c1ccccc1Oc1ccc(Cl)cc1Cl	nt	0.02
78	CCn1cc(C(=O)NC2CCCCCC2)c(=O)c2ccc(C)nc21	-0.15	-0.52
79	CSc1ccc(-c2ccc(C(=O)O)c(Cl)n2)cc1	-0.2	nt
80	O=C(CCCn1nc(-c2ccccc2)c2ccccc21)N1CCc2ccccc21	0.7	7.4
81	CCOC(=O)C(C)Sc1nc2c(c(-c3cccs3)c1C#N)CCCC2 (stereo not given)	nt	-0.28
82	CCOC(=O)C1=C(N)Oc2cc(O)ccc2C1c1ccc(Br)cc1 (stereo not given)	nt	-0.41
83	Cc1onc(-c2ccccc2)c1C(=O)NC1CCOc2ccccc21 (stereo not given)	0.1	nt
84	COc1ccc(CCNC(=O)CCn2c(SCC(=O)n3nc(N)cc3C)nc3ccccc3c2=O)cc1OC	nt	0.96

Single records, as listed above. Order of values: AID504770, CapD inh
`Cc1onc(-c2ccccc2)c1C(=O)NC1CCOc2ccccc21` (stereo not given) is listed as 0.1, nt
`c1ccc(CNC2=NCCCCC2)cc1` is listed as -0.35&0.7, 3.3&-0.36
`FC(F)(F)C(F)(F)C(F)(F)c1nnc2ccc(N3CCOCC3)nn12` is listed as -0.3, nt
`O=S(=O)(Nc1cc(Cl)cc(Cl)c1)c1ccccc1Oc1ccc(Cl)cc1Cl` is listed as nt, 0.02

Remaining list, next part
item	Compound	AID504770	CapD inh
85	CCOC(=O)C1=C(C)N=c2s/c(=C\c3ccc(OC)c(OC)c3OC)c(=O)n2C1c1ccc(OC)cc1 (stereo not given)	nt	-0.51
86	c1ccc(Nc2nc(CN3CCN(c4ncccn4)CC3)cs2)cc1	-0.9	nt
87	O=C(O)C1CCCN1C(=O)Nc1ccc(Br)cc1 (stereo not given)	0.3	-0.075
88	CCCS(=O)(=O)c1c(S(=O)(=O)CCC)c2c3ccccc3ccn2c1C(=O)c1ccc(OC)cc1	nt	-0.15
89	CCC(C)c1ccc(NC(=S)NC(=O)c2ccco2)cc1 (stereo not given)	0	-0.18
90	CC(C)NS(=O)(=O)c1cccc(C(=O)O)c1	0.25	nt
91	CCOc1ccc(N2C(=O)c3ccccc3NC2(CC)CC)cc1	-2	0.86
92	Cc1ccc(C(=O)CSc2nc(N)c(C#N)c(-c3cccs3)c2C#N)c(C)c1	nt	23
93	Cc1ccccc1NC(=O)c1c(NC(=O)c2ccccc2Cl)sc2c1CCCCC2	nt	-0.13
94	O=C(COC(=O)/C=C/c1ccco1)NC1CCCCC1	2.2	-1.3
95	COC(=O)Nc1ccc(S(=O)(=O)N2CCCC(C(=O)N3CC(C)OC(C)C3)C2)cc1 (stereo not given)	nt	0.32
96	S=C(NC1CCCCC1)C(=S)NC1CCCCC1	2.1	-0.32
97	N#Cc1c(NC(=O)COC(=O)C2CC3C=CC2C3)oc(-c2ccccc2)c1-c1ccccc1 (stereo not given)	-0.4	nt
98	O=C1C2C3c4ccccc4C(c4ccccc43)C2C(=O)N1c1cc([N+](=O)[O-])ccc1Cl (stereo not given)	nt	-0.34
99	COC(=O)/C(C#N)=C/c1ccnc(-c2ccc(OC(=O)c3cccs3)cc2)n1	nt	-0.62
100	CCOc1cc(C=C2C(=O)NC(=S)NC2=O)cc(Br)c1OCCOc1ccccc1C	nt	-0.23
101	Cn1c(=O)cc(SCC(=O)NC2CCCCC2)c2ccccc21	-1	1.1
102	N#CC(c1ccc(Cl)cc1)c1ccc(Sc2ccc(Cl)cc2)nn1 (stereo not given)	nt	-0.22
103	O=C(COCC(=O)N1CCc2ccccc21)N1CCc2ccccc21	-0.55	-0.6
104	O=C(c1cccc(Br)c1)N(C(=O)c1cccc(Br)c1)c1ncccn1	0.15	0.21
105	CCOc1ccc(CCNC(=O)C2CCN(S(=O)(=O)c3cccc4nonc34)CC2)cc1OCC	-0.85	-0.2
106	CC(=O)N1N=C(c2ccccc2)OC1(C)CC(=O)Nc1ccccc1 (stereo not given)	-0.2	nt
107	CCCN(CCC)CC(O)CN(c1ccc(OC)cc1)S(=O)(=O)c1ccc(C)cc1 (stereo not given)	nt	-0.48
108	COc1ccccc1-c1nnc(NC(=O)c2ccccc2S(C)(=O)=O)o1	-0.55	nt

Among those listed so far, four contain a nitro group on carbon.
item	Compound	AID504770	CapD inh
54	CCOC(=O)C1=C(O)/C(=C/c2ccc(O)c(OC)c2)SC1=Nc1ccc([N+](=O)[O-])cc1	nt	-0.38
65	O=C(CSc1nnc(CNC(=O)c2ccco2)n1-c1ccc([N+](=O)[O-])cc1)Nc1cc(C(F)(F)F)ccc1Cl	nt	-0.54
70	O=[N+]([O-])c1ccc(C2OCC3(CO)COC(c4ccc([N+](=O)[O-])cc4)N23)cc1 (stereo not given)	nt	-0.83
98	O=C1C2C3c4ccccc4C(c4ccccc43)C2C(=O)N1c1cc([N+](=O)[O-])ccc1Cl (stereo not given)	nt	-0.34

Later entries.
item	Compound	AID504770	CapD inh
109	COC(=O)c1ccccc1NC(=O)Cc1coc2c(C)c(C)ccc12	0	0.83
110	CC(C)(C)n1nc2c(c1NC(=O)c1ccc(Br)o1)CSC2	nt	-0.7
111	O=c1c2c3nc4ccccc4nc3n(-c3cccc(Br)c3)c2ncn1CC1CCCO1 (stereo not given)	2.6	3.8
112	CCCCCCc1nc(SCN2C(=O)c3ccccc3C2=O)c2c(=O)n(C)c(=O)n(CCC)c2n1	0.4	nt
113	CCOC(=O)c1cnn2c(C(F)(F)F)cc(C)nc12	-3.7	0.36
